From PubChem BioAssay
Vaccinia Venus = vaccinia inhibition (Venus reporter); Vaccinia virus Venus reporter expression, fluorescence; Potency, µM (series often up to 36.5 µM), inactives show at the top dose activity change, negative = inhibition, actives largely listed as inhibitors; actives 0.46% (n = 330,000); active means well fitted inhibition curve with a large enough effect; inconclusive means small, poorly fitted or top-dose-only effect; inactive means no such curve, though single readings can be large or run the other way; tested in A549 cells; note: nearly all actives have a fitted effect of over 30% in size; inactives centre near -10
Vaccinia mCherry = inhibitors of vaccinia virus infection (mCherry reporter signal). actives 0.63% (n = 310,000). Potency, µM (top dose mostly 36.5 µM), inactives show top-dose activity change, negative = inhibition, actives largely listed as inhibitors. Vaccinia virus mCherry reporter infection, fluorescence; about a quarter of the inactives have no number; active = well fitted inhibition curve with a large enough effect; inconclusive = small, poorly fitted or top-dose-only effect; inactive = no such curve, though single readings can be large or run the other way; tested in A549 cells; note: nearly all actives have a fitted effect of over 35% in size; inactives centre near -10
* hit, by the source's call; i = inactive; ? = inconclusive; . = not tested or not shown; & = joins results of further samples. % is set by controls: 0 for no effect and ±100 for the full control effect; potency is the fitted concentration of half-maximal effect.

Molecule,Vaccinia Venus,Vaccinia mCherry
CCc1sc(-c2c(C#N)c(N)nc3c2CCCCCC3)cc1[N+](=O)[O-],-7%,-9%
C#CC[N+](C)(C)CC#Cc1ccccc1,?,?
CC(=O)c1ccc2c(c1)OCCOCCOc1ccccc1OCCOCCO2,-10%,-13%
CCN(Cc1ccccc1)S(=O)(=O)c1ccc(C(=O)Nc2nnc(-c3ccccc3OC)o2)cc1,-14%,i
COc1ccc(Cn2nnnc2CN2CCC(O)(c3ccc(F)cc3)CC2)cc1,-9%,-20%
O=C(NCC(=O)N(Cc1ccccc1)C(C(=O)NC1CCCC1)c1ccco1)c1ccco1 (configuration not stated),-15%,i
COc1ccc(CCNC(=O)c2ccc(NS(=O)(=O)c3c(C)noc3C)cc2)cc1OC,-4%,-3%
CC(=O)ON=C1C=CC(=C(C#N)c2ccccc2)C=C1,-9%,4%
COc1ccc(/C=C/C(=O)NC(=S)Nc2cc3oc4ccccc4c3cc2OC)cc1,-7%,-4%
Cn1c(N)c(C(=O)CSc2ccc3c(c2)OCCO3)c(=O)n(C)c1=O,-11%,.
O/N=C(/CN(O)/C=C1/C=CC=N1)c1cccs1,-9%,-15%
COc1ccccc1NC(=O)CN1CCN(CC(=O)Nc2ccc(OCc3ccccc3)cc2)CC1,?,.
Cc1ccccc1OCC(=O)Nc1ccc(S(=O)(=O)N2CCCC2)cc1,-2%,-20%
Cc1cccc(NC(=O)Cn2nc(-c3cccs3)ccc2=O)c1C,1%,3%
CC(C)Cc1ccc(-c2cc(=O)[nH][nH]2)cc1,6%,19%
COc1ccc(N(CC(=O)NC2CCCCC2)C(=O)CNC(=O)c2ccco2)cc1,-12%,i
Nc1ccc(-c2cnc[nH]2)cc1[N+](=O)[O-],-19%,-23%
Cc1cc(-c2ccc(N3C(=O)CCC3=O)c(C)c2)ccc1N1C(=O)CCC1=O,-12%,.
CCc1ccc(N(CC(=O)NC(C)C)C(=O)CCC(=O)Nc2nccs2)cc1,-9%,5%
CCOC(=O)C1CCN(C(=O)Cn2cc3c(n2)CCC(C)C3)CC1 (configuration not stated),-4%,-11%
N#CCCN1CCN(S(=O)(=O)c2ccc3c(c2)OCCCO3)CC1,-6%,.
O=C(COC(=O)C1CC1)Nc1ccc(N=Nc2ccccc2)cc1,?,-2%
CCNC(=O)NC(=O)C(C)Sc1nc2ccccc2c(=O)n1-c1cccnc1 (configuration not stated),9%,i
CC(C)c1cccc(C(C)C)c1NC(=O)CN1C(=O)NC2(CCCC2)C1=O,-4%,-2%
O=C(c1cc(-c2cccc(Cl)c2)on1)N1CCN(c2ccccc2)CC1,0%&0%,-13%&4%
COc1cc(-c2cc(-c3ccc(N)cc3)[nH]c(=O)c2C#N)cc(OC)c1OC,-3%,-2%
Cc1oc(-c2ccccc2Cl)nc1CSCC(=O)O,-4%,i
O=C(Cn1c2[n+](c3ccc(C(F)(F)F)cc31)CCCCC2)c1ccc2c(c1)OCCO2,-1%,-22%
CCOC(=O)C1(C(N)=O)OC1(c1ccc(Cl)cc1)c1ccccc1Cl (configuration not stated),-2%,-2%
CCOc1ccc(/C(C)=N/NC(=O)Cn2nc([N+](=O)[O-])cc2C)cc1,-10%,i
CCN1C[C@@H]2[C@@H]3C(=O)N(Cc4ccccc4)C(=O)[C@@H]3[C@](C)(C1=O)N2C(=O)c1ccc(C)cc1,3%,i
Cc1[nH]c2ccccc2c1C(=O)CN1CCC(C)CC1,-1%,-11%
CC1(C)O[C@@H]2CC3C4C[C@H](F)C5=CC(=O)C=CC5(C)C4C(O)CC3(C)[C@]2(C(=O)CO)O1 (some centres not stated),-20%,-12%
Cc1nn(-c2ccc(F)cc2)c(-n2cccc2)c1C(=O)NCCCN1CCN(c2cccc(Cl)c2)CC1,?,?
CC1Oc2ccc(C#N)cc2N(Cc2cccc(F)c2)C1=O (configuration not stated),-11%,-23%
COc1cccc(CNC(=O)CCNC(=O)c2ccco2)c1,4%,-5%
O=C1c2ccccc2C(=O)N1CCCC(=O)N1CCc2ccccc21,0%,-2%
Cc1cc(NS(=O)(=O)c2cn(C)c(C)n2)ccc1Br,-9%,-18%
CSc1c2c([nH]c(=O)c1C#N)-c1ccccc1CC2,6%,22%
CC(=O)Nc1ccc(S(=O)(=O)NNC(=O)c2cccc(Br)c2)cc1,-5%,i
CCS(=O)(=O)N1CCc2cc(C(=O)Nc3cccc(Cl)c3C)ccc21,-11%,i
Cc1ccc(Nc2cc(C)nc3c(C)cccc23)cc1,-15%,?
O=C(C1CCCO1)N1CCN(C(=S)Nc2ccc(F)c(Cl)c2)CC1 (configuration not stated),-12%,-1%
CCOC(=O)N1CCN(Cc2ccc(F)cc2F)CC1,-6%,-11%
COc1cc(C(=O)Nc2ccccc2N2CCOCC2)ccc1OCC(=O)N1CCOCC1,-15%,i
CCN1C(=O)C(CC(=O)NC)N(NC(=O)c2ccccc2)C1=S (configuration not stated),-9%,-7%
COCc1nnc(NC(=O)c2ccc3c(c2)OCO3)s1,-5%,i
Cc1ccc(-n2c(SCC(N)=O)nnc2-c2cnccn2)cc1,-3%,i
O=C(NC1CCCc2ccccc21)c1cccc(F)c1 (configuration not stated),0%,-19%
COc1ccc(Cn2c(-c3ccccc3)nc3c(c(=O)c4ccccc4n3C)c2=O)cc1,-4%,i

(next part)
Molecule,Vaccinia Venus,Vaccinia mCherry
CC(=O)Nc1ccc(Nc2nc(C(F)(F)F)nc3c2nnn3Cc2ccccc2Cl)cc1,-21%,?
Fc1ccc(-c2nc3ccc(Cl)cn3c2Cc2cccc(Cl)c2)cc1,2%,2%
CCCC(=O)N1CCN(c2ccc(NC(=O)c3ccc(Br)o3)cc2)CC1,-23%,.
CCOC(=O)Cc1csc(Nc2c(C)n(C)n(-c3ccccc3)c2=O)n1,7%,i
c1ccc2c(c1)NCC1CCCN21 (configuration not stated),8%,?
CC1(C)C2CCC1(C)C(OC(=O)c1ccccc1C(=O)O)C2 (configuration not stated),-11%,-15%
CCCNC(=O)c1ccc(COc2ccc(CCC)cc2OC)o1,-20%,i
C=CCOC(=O)C1=C(C)OC(N)=C(C#N)C1c1ccc(OC)c(CSc2ccccn2)c1 (configuration not stated),-4%,i
Cc1ccc(CN2CCN(Cc3c(C)nn(-c4ccc(F)cc4)c3C)CC2CCO)o1 (configuration not stated),-17%,-4%
COc1ccc(C(=O)Nc2cccc(C(=O)N3CCCCC3)c2)cc1,-20%,-6%
CC(C)(COC(=O)C(c1ccccc1)c1ccccc1)CN1CCOCC1,-7%,-14%
O=C(COc1ccc(S(=O)(=O)N2CCOCC2)cc1)NCCc1ccc(Cl)cc1,-8%,i
Cc1ccc(S(=O)(=O)N2CCCCC2)cc1NC(=O)c1cnccn1,-1%,-13%
C=CCC[C@@H](Cc1ccc(F)cc1)C(=O)OC[C@@H](Cc1c[nH]c2ccccc12)NC(=O)[C@@H](CC=C)CC(=O)N[C@H](CO)Cc1ccccc1,-27%,i
CC(=O)C1=C(c2cccc([N+](=O)[O-])c2)N(C(C)=O)n2c(nnc2-c2ccc(C)cc2)S1,-4%,-14%
CCCC(=O)NC1CCc2cc(OC)c(OC)c(OC)c2-c2ccc(OC)c(=O)cc21 (configuration not stated),?,?
COc1ccc(/C=C(/NC(=O)c2ccccc2)c2nc3ccc(Cl)cc3[nH]2)cc1OC,-2%,12%
Cc1cccc(C)c1NC(=O)CNC(=O)C1CCCN(C(=O)c2ccc(Cl)cc2)C1 (configuration not stated),-14%,-23%
CC(Oc1ccccc1F)C(=O)NNC(=O)c1ccc(F)c(S(=O)(=O)N2CCOCC2)c1 (configuration not stated),-14%,i
CCCc1nnc(NC(=O)CCC(=O)N2CCN(S(=O)(=O)c3ccc(C)cc3)CC2)s1,-7%,i
Cc1cc(=O)oc2cc(OCCSc3nnc(-c4ccccc4)o3)ccc12,0%,-4%
COc1ccc(CC(=O)N(C)CC(=O)Nc2ccccc2SC)cc1,-10%,-20%
O/N=C1/CC/C(=N\O)c2nn(-c3ccccc3)nc21,-28%,-23%
Cc1cccc(NC(=O)c2ccc(-c3ccccc3[N+](=O)[O-])o2)c1,-13%,-19%
O=C(NCc1nnc2n1CCN(Cc1ccccc1C(F)(F)F)CC2)c1ccncc1,-8%,i

Given with two lines to a compound: 5 of the compounds above
Every second line gives: Vaccinia Venus	Vaccinia mCherry
Cc1ccc(S(=O)(=O)N2CCCCC2)cc1NC(=O)c1cnccn1
    -1%	-13%
C=CCC[C@@H](Cc1ccc(F)cc1)C(=O)OC[C@@H](Cc1c[nH]c2ccccc12)NC(=O)[C@@H](CC=C)CC(=O)N[C@H](CO)Cc1ccccc1
    -27%	i
CC(=O)C1=C(c2cccc([N+](=O)[O-])c2)N(C(C)=O)n2c(nnc2-c2ccc(C)cc2)S1
    -4%	-14%
CCCC(=O)NC1CCc2cc(OC)c(OC)c(OC)c2-c2ccc(OC)c(=O)cc21 (configuration not stated)
    ?	?
COc1ccc(/C=C(/NC(=O)c2ccccc2)c2nc3ccc(Cl)cc3[nH]2)cc1OC
    -2%	12%

Next records
Molecule,Vaccinia Venus,Vaccinia mCherry
CCn1cc(C(=O)OC)c(=O)c2ccc(C)nc21,0%,-9%
CC1CC(=O)N(c2ccc(NCCc3ccc(O)cc3)c([N+](=O)[O-])c2)C1=O (configuration not stated),-7%,-18%
Cc1ccc(C(=O)NCCSc2ccc(Cl)cc2)cc1S(=O)(=O)Nc1ccccc1,?,?
CCc1cc(=O)oc2cc(C)cc(OCC(=O)N3CCC(C(=O)O)(c4ccccc4)CC3)c12,1%,-9%
CN(C)/C=N/C1=C(C#N)C(c2ccc(Br)cc2)c2ccc3ccccc3c2O1 (configuration not stated),-8%,-10%
Cc1ccc(-n2c(=O)c3oc4ccccc4c3n(Cc3cccc(F)c3)c2=O)cc1C,-6%,-12%
Cc1cc(Cl)c2oc(C(=O)N3CCN(c4cnccn4)CC3)c(C)c2c1,?,-23%
Cc1ccc(C(=O)C2=C(O)C(=O)N(c3ncccn3)C2c2ccc(F)cc2)o1 (configuration not stated),-1%,i
COc1ccc(/C=N/NC(=O)c2cccc(NC(=O)c3ccccc3Cl)c2)c(OC)c1,-21%,-15%
C[C@@H]1CN([C@H](C)CO)C(=O)c2cc(C#Cc3ccccc3F)cnc2O[C@@H]1CN(C)S(=O)(=O)c1ccccc1F,-7%,i
CCCCNC(=O)Cn1cnc2sc(C)c(S(=O)(=O)N3CCN(c4ncccn4)CC3)c2c1=O,-8%,i
O=C(c1ccccc1)N1CCn2c1nc1ccccc12,-6%,-3%
Cc1cc(C)c2c(n1)SCCN2C(=O)Nc1ccc(C(=O)Nc2cc(Cl)ccc2C)cc1,-7%,-14%
CNC(=O)c1c2c(nc3ccc(Br)cc13)CCCC2,?,i
COc1ccc(N(CC(=O)Nc2ccccc2F)S(=O)(=O)c2ccc(C)c([N+](=O)[O-])c2)cc1,-10%,?
COc1ccccc1CNC(=S)Nc1ccc2nc(N3CCN(C)CC3)cc(C)c2c1,-13%,-13%
O=[N+]([O-])c1cccc(S(=O)(=O)c2ccc(NCCOCCO)c([N+](=O)[O-])c2)c1,?,-29%
O=c1cc(CN2CCN(Cc3ccccc3)CC2)c2cc(Cl)ccc2o1,-2%,-9%
O=C(Nc1ccc(C(F)(F)F)cc1)C1(c2cccs2)CCOCC1,-5%,-4%
CCC1=C(OC(=O)N(CC)CC)N2C(=O)OC(=NCCc3c[nH]c4ccccc34)[C@]2(Cc2ccccc2)[C@H]2C1=CC[C@H]1C(=O)N(CC(=O)OC)C(=O)[C@H]12,?,?
Cc1ccc(C)c(-n2nnnc2SCC(=O)NNC(=O)c2ccco2)c1,-14%,-15%
COc1ccc(N(C(=O)COc2ccc(C)cc2)S(=O)(=O)c2ccc(C)cc2)cc1,-11%,-4%
COCC(C)N=CC1=C(O)CC(C)(C)CC1=O (configuration not stated),-3%,-12%
C(=Nc1cnc2ccccc2c1)c1cccnc1,-4%,-8%
CCCCCCCNC(=O)C1(CC2CC(c3ccccc3)=NO2)CCNCC1 (configuration not stated),?,-14%
Cc1ccc(C(=O)c2coc3c2C(=O)C(=O)c2ccccc2-3)cc1,3%,-11%
Cc1cc(C(=O)NC(=S)Nc2cccc(NC(=O)C(C)C)c2)ccc1[N+](=O)[O-],-19%,-3%
COc1ccc2ncc(OC(C)=O)cc2c1,-10%,i
COC(=O)c1ccc(NC(=O)Cn2c(=O)oc3ccccc32)cc1,5%,2%
COc1ccccc1CC(=O)Nc1ccc(S(=O)(=O)N2CCN(C)CC2)cc1,-11%,i
CCc1nn(CCCC(=O)NCc2ccc(OC(C)C)cc2)c(=O)c2cc3occc3n12,?,-13%&-11%
CN(C)c1ccc(/C=C2\C(=O)NC(=O)N(Cc3ccc(F)cc3)C2=O)cc1,9%,-14%
COc1cc(/C=C2\SC(=O)NC2=O)ccc1OCC(=O)N1CCOCC1,-4%,-7%
CS(=O)(=O)N1CCc2ccccc2C1,-16%,.
COc1ccc(CNCc2ccc3c(c2)OCO3)c(OC)c1OC,-14%,-5%
Cc1cc(Cl)ccc1OCC(=O)Nc1cccc(-c2nc3ccccc3o2)c1,?,-11%

Reformatted with two lines to a compound: entries from further up
Values in the order: Vaccinia Venus	Vaccinia mCherry
> COc1ccc(CNCc2ccc3c(c2)OCO3)c(OC)c1OC
 : -14%	-5%
> Cc1cc(Cl)ccc1OCC(=O)Nc1cccc(-c2nc3ccccc3o2)c1
 : ?	-11%
